High-throughput results as filed in PubChem BioAssay.
TRPV1 PAM – enhances activation of the human vanilloid receptor TRPV1; 320,000 compounds, 0.02% hits; AID 540277; TRPV1-expressing cells, Fluo-8 calcium influx, capsaicin EC20 potentiation; host cell line not named in the record; control for the full effect not named in the record; potentiation, % at 8.33 µM; Q8NER1; active means potentiation above 80%; inconclusive means 30% to 80%; inactive means below 30%; note: 0% is about no effect
Target sequence (Q8NER1 whole entry, looked up): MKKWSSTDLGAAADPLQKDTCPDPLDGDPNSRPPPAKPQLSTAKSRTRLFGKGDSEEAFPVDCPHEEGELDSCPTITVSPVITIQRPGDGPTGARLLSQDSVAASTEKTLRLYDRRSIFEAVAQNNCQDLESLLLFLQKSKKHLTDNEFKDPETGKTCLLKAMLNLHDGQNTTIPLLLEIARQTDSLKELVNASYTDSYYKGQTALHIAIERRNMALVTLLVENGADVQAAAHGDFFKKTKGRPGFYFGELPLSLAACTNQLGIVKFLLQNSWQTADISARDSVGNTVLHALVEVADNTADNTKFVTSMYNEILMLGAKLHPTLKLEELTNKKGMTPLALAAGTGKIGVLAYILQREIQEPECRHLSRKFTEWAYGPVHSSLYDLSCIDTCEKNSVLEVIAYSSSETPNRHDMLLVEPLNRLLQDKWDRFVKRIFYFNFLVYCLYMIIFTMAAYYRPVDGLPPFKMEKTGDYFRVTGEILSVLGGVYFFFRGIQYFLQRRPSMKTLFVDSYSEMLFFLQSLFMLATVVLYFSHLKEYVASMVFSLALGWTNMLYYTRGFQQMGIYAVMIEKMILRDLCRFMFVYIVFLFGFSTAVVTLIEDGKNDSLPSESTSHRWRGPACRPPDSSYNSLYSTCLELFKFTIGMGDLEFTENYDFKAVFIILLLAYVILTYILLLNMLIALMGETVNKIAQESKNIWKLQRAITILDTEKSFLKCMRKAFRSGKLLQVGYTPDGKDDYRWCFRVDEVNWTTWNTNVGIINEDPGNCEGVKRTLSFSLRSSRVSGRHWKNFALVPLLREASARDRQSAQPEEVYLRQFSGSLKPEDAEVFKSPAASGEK
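TRPV1-expressing cells were cultured overnight at 35.5C and loaded with Fluo-8 calcium dye for 40 to 90 min at room temperature. After a 10 s baseline, compound was added and calcium influx was read kinetically for 3 min (ex 480/em 520 nm).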
Menin-MLL FL inh – inhibitors of human menin-MLL interaction, wild-type MLL peptide; Fluorescence polarization, fluorescein-MLL peptide displacement from menin; FP activity change, % at 61.4 µM; 290,000 tested, under 10 active; inconclusive = falling polarisation curve, or a change in total fluorescence; inactive = total fluorescence flat and polarisation flat or rising; no compound was filed as active; the % refers to the polarisation; negative = inhibition;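 note: % of control where 0% means no effect; inhibitors lower the polarisation; unlabelled MLL peptide was the positive control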
gsp agonist – agonists of gsp mutant (McCune-Albright syndrome) | gsp mutant cells, cAMP HTRF, 30 min; control for the full effect not named in the record | Potency, µM (highest dose often 76.9 µM), for inactives: at the highest dose activation (cAMP increase), hits mostly activators | 340,000 compounds, 0.13% hits | AID 624287; active = well fitted activation curve with a large enough effect; inconclusive = small, poorly fitted or top-dose-only effect, or another doubt; inactive = no such curve, though single readings can be large or run the other way; cell line not stated here;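 note: phosphodiesterase inhibitor Ro 20-1724 added with compounds to block cAMP breakdown; potency is the fitted concentration of half-maximal effect; nearly all actives have a fitted effect of over 60% in size; about a fifth of the inactives were tested at one dose only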
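Cells in DMEM/10% FBS with G418 were pretreated with compounds in DMSO plus […] (300 uM stock) for 30 min at 37C. cAMP was measured by HTRF (cAMP-d2 plus anti-cAMP antibody-K) after 30 min at room temperature.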
ClpP mod – qHTS Assay for Activators of ClpP; purified B. subtilis ClpP, FRET peptide cleavage, 20 min; Potency, µM (series often up to 57.5 µM), inactives show at the top dose activity change, negative = active; 340,000 compounds, 1.9% hits; active = well fitted falling curve with a large enough effect; inconclusive = small, poorly fitted or top-dose-only effect; inactive = no such curve, though single readings can be large or run the other way; note: potency is the fitted concentration of half-maximal effect; the source files actives as falling curves though it sought activators and does not explain the sign; nearly all actives have a fitted effect of over 65% in size; many hits overshoot -100%
Target sequence (P80244 whole entry, looked up): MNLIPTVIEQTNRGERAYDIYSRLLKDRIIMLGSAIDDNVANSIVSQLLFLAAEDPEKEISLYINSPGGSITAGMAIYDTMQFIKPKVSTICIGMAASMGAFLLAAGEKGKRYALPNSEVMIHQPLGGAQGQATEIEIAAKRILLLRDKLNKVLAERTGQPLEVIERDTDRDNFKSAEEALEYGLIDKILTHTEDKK
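Buffer: 100 mM Tris/HCl pH8, 100 mM KCl, 0.05% low protease BSA, 2.5% glycerol, 0.01% Tween-20. ClpP 10 microg/mL final; 20 min RT; delta FRET normalized to ADEP and DMSO controls.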
Sfp PPTase inh – inhibitors of Bacillus subtilis Sfp phosphopantetheinyl transferase; Biochemical Sfp PPTase activity, qHTS; Potency, µM, for inactives: max response, negative = inhibition, actives largely listed as inhibitors; 310,000 compounds, 3.5% hits; Q9F4F7; active = well fitted inhibition curve with a large enough effect; inconclusive = small, poorly fitted or top-dose-only effect, or another doubt; inactive = no such curve, though single readings can be large or run the other way;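 note: the enzyme is Sfp with the accession as filed and its product quenches rhodamine fluorescence; potency is the fitted concentration of half-maximal effect; 0% = enzyme reaction without inhibitor and -100% = no enzyme wells; top concentration of the series not given in the record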
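Step 1, compound plus 15 nM Sfp-PPTase, 15 min, room temperature. Step 2, add rhodamine-CoA (5 uM) and BHQ-2-YbbR (12.5 uM). Step 3, read 525/598 nm fluorescence at 0 and 30 min.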
D2 PAM – potentiates the human D2 dopamine receptor allosterically. AID 624464. DiscoveRx D2 beta-arrestin cells, luminescence, 90 min; 100% = 57 uM dopamine signal. 360,000 compounds, 0.23% hits. potentiation, % (no concentration beside the values). P14416; active = potentiation of 50% or more; inconclusive = 30% to 50%; inactive = 30% or less;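 note: compound concentration not given in the record; tested on top of an EC20 dose of dopamine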
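PathHunter beta-arrestin assay in DiscoveRx D2 cells. Compounds were added with an EC20 of dopamine (50 nM final) for 90 min at 37 deg C. Luminescence was read 1 h after detection reagent, with 57 uM dopamine as the EC100 control.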
gsp antagonist – gsp mutant antagonism; 340,000 compounds, 0.4% hits; AID 624288; Potency, µM (highest dose often 76.9 µM), inactives show top-dose activity change, negative = inhibition, actives largely listed as inhibitors; gsp-mutant cells, cAMP HTRF, 30 min; control for the full effect not named in the record; active = falling curve of any shape with a large fitted effect; inconclusive = falling curve, mostly with a smaller effect; inactive = flat or rising curve; cell line not stated here;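 note: intracellular cAMP measured with PDE inhibitor Ro 20-1724 present during compound exposure; potency is the fitted concentration of half-maximal effect; % is set by controls: 0 for no effect and ±100 for the full control effect; nearly all actives have a fitted effect of over 65% in size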
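Cells in G418 medium, seeded 16-24 h, 37C; buffer exchange to DPBS + 1 mM CaCl2, 0.5 mM MgCl2, 0.05% BSA; cpds in DMSO + […] (300 uM stock), 30 min 37C; HTRF cAMP detection.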
The depositor's hits bear a star; ? = inconclusive; / = no result given; & = joins results of further samples; [ ] = another dose, or the depositor's remark.

SMILES	TRPV1 PAM	Menin-MLL FL inh	gsp agonist	ClpP mod	Sfp PPTase inh	D2 PAM	gsp antagonist
Cc1ccc(S(=O)(=O)c2nc(-c3ccc(F)cc3)oc2SCC(=O)NCC2CCCO2)cc1 (stereo unspecified)	?	-0.1	-33%[inhibitor]	3.4%	-15%	2	0%
CCc1ccc(NC(=O)c2cc(Br)ccc2Br)cc1	-6	5.2	/	/	-1%	/	/
CCCC1(CCC)C(=O)NC(=NCCc2ccc(OC)c(OC)c2)NC1=O	-11	4.6	3%[15.4 µM]	/	5%	-15	5%
COc1ccc(NC(=O)C2CC(=O)N(c3ccc(C)cc3)C2)cc1S(=O)(=O)N1CCCCC1 (stereo unspecified)	/	/	-49%[inhibitor]	-2.5%	/	-19	/
O=C(Nc1ccccc1)c1ccc(NCc2ccco2)c(S(=O)(=O)N2CCOCC2)c1	-28	3.6	2%	-5.6%	-20%	4	2%
COCCCNc1c2c(nc3ccccc13)CCC2	/	/	0%	-1.6%	/	-4	/
O=C(NCc1ccccc1)/C(NC(=O)c1ccccc1)=C(/Sc1ccccn1)c1ccccc1	2	2.9	0%	5.0%	12%	2	-2%
O=C(CCCN1C(=O)/C(=C/c2cccc(Br)c2)SC1=S)N1CCOCC1	6	-1.6	-1%	/	-19%	-2	6%
COc1ccc(Cn2c(=O)cc(C)[nH]c2=S)cc1	-6	1.6	-18%	-0.9%	-4%	0	17%
CON(C)S(=O)(=O)c1cccc(C(=O)NC2CCSc3ccccc32)c1 (stereo unspecified)	-9	4.1	-21%	/	12%	1	0%
COc1cc(S(=O)(=O)NC(Cc2c[nH]c3ccccc23)C(=O)O)ccc1NC(C)=O (stereo unspecified)	5	/	11%[15.4 µM]	/	-4%	6	7%
Cc1cc(C)cc(OCC(=O)NN2C(=O)c3ccccc3C2=O)c1	2	3.3	-10%	1.2%	?	-2	4%
Cc1ccc(CNC(=O)CSc2nc3ccsc3c(=O)n2Cc2ccc(C(=O)O)cc2)cc1	-31	2.3	-5%	-2.7%	18%	-2	-12%
CC(Sc1nnc(C2CC2)n1N)C(=O)NC1CCCCC1C (stereo unspecified)	1	/	-13%	-2.3%	17%	10	13%
O=C(c1ccc2[nH]c(=O)c(=O)[nH]c2c1)N1CCc2ccccc21	4	/	3%	-5.9%	5%	1	5%
O=C(O)c1ccccc1/C=N/Nc1ccc(S(=O)(=O)N2CCCC2)cc1[N+](=O)[O-]	/	3.1	5%[15.4 µM]	/	-1%	1	-22%
Cc1cccc(NC2=C(Cl)C(=O)OC2OC(=O)c2ccco2)c1 (stereo unspecified)	-2	-4.4	-17%[15.4 µM]	/	15%	-3	3%
CN(CC(=O)Nc1cccc(F)c1)C(=O)CN1C(=O)NC2(CCCC2)C1=O	3	/	0%	-1.7%	/	-3	7%
CN(CCC#N)C(=O)COC(=O)c1ccc(Cl)cc1O	-57	-4.0	1%[15.4 µM]	/	33%	0	0%
CCOc1ccccc1-c1c2cc(O)c(=O)cc-2oc2cc(O)c(O)cc12	-41	?	?	-1.7%	32µM*	-31	12%
O=C(O)CSc1ncnc2scc(-c3ccccc3)c12	17	7.6	65%[15.4 µM]	/	7%	-9	14%
O=C(c1ccccc1Cc1ccccc1)N1CCN(S(=O)(=O)c2ccccc2[N+](=O)[O-])CC1	10	/	-20%	-2.1%	/	10	-14%
CCOC(=O)CC1(NC(=O)C2CCC(=O)N(C3CC3)C2)CCCCC1 (stereo unspecified)	4	/	27%	-1.2%	11%	-28	-1%
CNS(=O)(=O)c1ccc(NC(=O)c2cnn3c(C(F)F)cc(-c4ccccc4)nc23)cc1	-15	0.4	9%	0.0%&2.6%	-22%	-11	?
O=C1CCc2cc(NS(=O)(=O)c3cc(F)ccc3F)cc3c2N1CC3	-13	/	-2%	-0.4%	/	-7	2%
COc1ccc(NC(=O)c2ccc(N3CCCC3=O)cc2)cc1Cl	/	/	-8%	-9.5%	/	-5	11%
CCc1c(Nc2ccccc2Cl)nc(N)[nH]c1=O	/	/	-1%	/	/	-11	8%
O=C(O)/C(=C\c1cn(-c2ccccc2)nc1-c1cccnc1)NC(=O)c1ccccc1	8	0.2	?	2.7%	26%	-9	12%
CC(C)N(CCn1c(SCC(=O)Nc2cccnc2Cl)nc2ccccc2c1=O)C(C)C	0	/	?	-3.8%	/	-20	-15%
COc1ccc(NCc2ccccc2[N+](=O)[O-])cc1OC	11	-1.5	5%	?	-5%	27	-6%
COC(=O)[C@@]12CCCN1[C@H](c1ccc(-c3ccc(OC)cc3)cc1)[C@@H]1C(=O)N(C)C(=O)[C@@H]12	?	/	/	-0.4%	/	30	-4%
Cc1nc2ccccc2n1CC(=O)NC1CCCCCC1	0	1.2	15%	1.0%	12%	-10	-2%
COc1ccc(Cn2nnnc2C(CC(C)C)N2CCC(C(N)=O)CC2)cc1 (stereo unspecified)	10	5.9	-2%[15.4 µM]	/	5%	-4	-13%
Cc1cc(C)cc(NC(=O)C2CCCN(c3ncccn3)C2)c1 (stereo unspecified)	-4	/	11%	/	5%	1	5%
CCOC(=O)c1c(CSC(=N)N)n(-c2ccccc2)c2cc(Br)c(OC(C)=O)cc12	5	?	2%[15.4 µM]	/	?	-14	1%
C=C(C)c1cccc(C(C)(C)NC(=O)NCC2COCCO2)c1 (stereo unspecified)	23	2.3	7%	-0.5%	23%	5	10%
CC1CCCN(S(=O)(=O)c2ccc(S(=O)(=O)N3CCC4(CC3)OCCO4)cc2)C1 (stereo unspecified)	-25	7.0	7%	1.5%	-2%	-13	-7%
CCOC(=O)Cc1csc(SCc2nc3sc4c(c3c(=O)[nH]2)CCC4)n1	-13	1.2	30%	1.1%	4%	-12	-9%
Cc1ccsc1C(=O)N1CCc2ccccc2C1	-6	/	20%	-1.9%	4%	-3	8%
COC(=O)c1c(N2C(=O)Nc3ccccc3N2O)sc(C)c1C	4	-0.2	-39%[inhibitor]	-1.3%	22%	-1	-5%
COc1ccc(/C=N/NC(=O)c2nnn(-c3nonc3N)c2-c2cccc(OC)c2)cc1	0	-1.7	-32%	-8.0%	12%	2	?
Cc1ccc(NC(=O)C2CCCN(C(=O)c3ccc(Cl)cc3)C2)cc1 (stereo unspecified)	-18	5.8	-4%[15.4 µM]	/	7%	-8	-9%
COc1ccc(-c2nn(-c3ccccc3)cc2/C=N/NC(=O)c2cccc(S(=O)(=O)Nc3ccccc3OC)c2)cc1	-3	3.6	19%	18µM*	26%	-4	-7%
N#Cc1cc(N)ccc1Sc1ccc(Cl)cc1	0	4.3	0%	28µM*	-2%	-6	-8%
CC(=O)Nc1nc(-c2ccc(Cl)cc2)ns1	-14	2.3	-2%	0.0%	-8%	-12	-8%
O=C(COC(=O)c1ccc[nH]c1=O)Nc1ccc(S(=O)(=O)N2CCCC2)cc1	-13	1.4	10%	-23%	4%	-8	2%
CC(=O)c1c(C)[nH]c(C(=O)N2CCN(c3ccccn3)CC2)c1C	-8	-1.3	?	-11%	10%	0	0%
O=C1c2ccccc2NC(c2ccc3c(c2)OCO3)N1O (stereo unspecified)	-3	4.5	-2%	3.6%	-5%	-39	-14%
Cc1ccc(OCC(=O)NCCNC(=O)c2ccc(C)nc2)cc1	?	0.8	7%	/	-1%	-3	7%
COCCn1c(SCC(=O)Nc2ncc(Cl)c(C)c2Cl)nc2ccccc21	-2	-0.8	-1%	0.8%	0%	-14	-1%
CC1CCN(c2ccc(NC(=O)c3cccnc3Cl)cc2)CC1	-6	-0.3	?	2.1%	9%	-6	1%
CCNC(=O)COc1ccc(F)cc1C(=O)c1cnn(-c2ccccc2)c1	-4	-1.0	-19%[15.4 µM]	/	2%	2	2%
O=C(Nc1nc2cc3c(cc2s1)OCO3)c1cccc(N2C(=O)CCC2=O)c1	-3	5.1	-14%	3.6%	-2%	-1	8%
COc1ccc(COc2cc(-c3cccc(OC)c3)nc3ccc(NC(=O)c4ccccc4)cc23)cc1	2	0.4&2.7	/	?	22%&-2%	0	6%
CCOC(=O)N1CCN(C(=O)c2ccc3nc(N4CCC(C)CC4)sc3c2)CC1	/	-1.6	0%	-25%	-3%	0	-2%
CC(=O)NC1c2ccccc2C(=O)N1Cc1ccccc1 (stereo unspecified)	1	-2.0	-32%[inhibitor]	3.9%	11%	-2	1%
CCOc1ccc(Cc2n[nH]c(=S)n2N)cc1	-8	2.4	-16%	-0.9%	56µM*	11	6%
COc1c2ccoc2c(OC)c2oc(=O)ccc12	-7	-0.2&-0.9	/	3.6%	-8%&-5%	-8	9%
COc1cc(S(=O)(=O)N2CCOCC2)c(OC)c(S(=O)(=O)N2CCOCC2)c1	/	/	7%	?	/	1	9%
COc1ccccc1/C=C/C=N/n1c(-c2ccc(C)cc2)n[nH]c1=S	0	1.5	-3%	-3.3%	-19%	-19	-11%

(next part)
SMILES	TRPV1 PAM	Menin-MLL FL inh	gsp agonist	ClpP mod	Sfp PPTase inh	D2 PAM	gsp antagonist
C[C@@H]1CN([C@@H](C)CO)C(=O)CCCn2nncc2CO[C@H]1CN(C)S(=O)(=O)c1ccc2ccccc2c1	/	/	-113%[inhibitor]	-4.3%	/	-12	/
O=C(NCCCn1ccnc1)C(F)(F)C(F)(F)C(=O)NCCCn1ccnc1	17	-0.4	0%	0.3%	?	-9	7%
CCOc1cc(CNn2cnnc2SCC(=O)NC(C)(C)C)ccc1OCC(=O)NC(C)(C)C	-11	4.7	30%	/	-1%	-6	2%
CSc1ccccc1NC(=O)COC(=O)c1c[nH]c(=O)[nH]c1=O	?	0.1	?	1.1%	-3%	-8	14%
O=C(O)c1ccc(CNC(=O)c2ccccc2NC(=O)c2cccc([N+](=O)[O-])c2)cc1	2	-0.9	17%[15.4 µM]	/	11%	-2	4%
O=C(N/N=C/c1cccnc1)c1cc(-c2cccs2)nc2ccccc12	0	2.6	-1%	25µM*	26%	0	-2%
Cc1ccc(NC(=O)CSc2nsc(SCC(=O)Nc3ccc(C)cc3C)c2C#N)c(C)c1	-4	2.6	-5%[15.4 µM]	/	6%	-9	-3%
CN(C)c1nc(N(C)C)nc(N2CC(CCl)OC2=N)n1 (stereo unspecified)	-3	0.4	-19%	/	14%	-3	5%
